Compound activity from PubChem BioAssay.
Beta cell apopt: blocks beta cell apoptosis | 300,000 compounds, 0.8% hits | INS-1E cytokine-induced death, ATP luminescence, 48 h; percent of positive-control rescue, neutral wells zero | protection from apoptosis, % (concentration not given with the values);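 active = all replicates at 75% or more, or half of them and the mean; inconclusive = half reach 75% but not the mean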;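 also: 0% = cytokine-treated negative control wells and 100% = positive control rescue; higher means more ATP so stronger rescue from cytokine killing; wells of about 40 µL received 100 nL stock; the first replicate is given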
RanGTP-Imp inh: inhibitors of RanGTP-importin-beta interaction, primary screen, biochemical, FRET, CFP-Ran, YFP-importin-beta, homogeneous; cell-free CFP-Ran/YFP-importin-beta FRET ratio; inhibition, % (concentration not given with the values); 300,000 compounds, 1.1% hits; AID 2216;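 active = most replicates above 15%; inconclusive = exactly half above 15%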;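 also: 0% = DMSO wells and 100% = Ran loaded with GDP instead of GTP; wells of about 40 µL received 100 nL stock; the first replicate is given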
Calb FLC: affects C. albicans growth with fluconazole; C. albicans CaCi-2 (fluconazole-resistant clinical isolate) + fluconazole, Alamar Blue growth, 48 h; growth inhibition, % (test concentration not listed); 300,000 compounds, 0.57% hits; AID 1979;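 active = most replicates above 75%; inconclusive = exactly half above 75%; inactive = most below 75%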;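 also: all wells also contain fluconazole at 8 µg/ml as a sub-toxic cotreatment; 0% = median of DMSO wells and 100% = median of geldanamycin control wells; wells of about 8 µL received 7.5 nL stock; the first replicate is given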
AF4-AF9 inh: MLL-AF4/AF9 protein interaction inhibition; 350,000 compounds, 0.47% hits; AID 651704; AlphaScreen, biotin-AF4 peptide binding to FLAG-AF9; P42568; inhibition, % at 10 µM;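 active = every replicate reaching a set inhibition limit, whatever the replicate mean, cut at about 25% in these data; inconclusive = mean inhibition reaches that limit but some replicates miss it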;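 also: 0% = plate neutral control median and 100% = total signal loss; the record names both 10 and 1 µM as test concentration; the first replicate is given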
Target sequence (P42568 whole entry, looked up): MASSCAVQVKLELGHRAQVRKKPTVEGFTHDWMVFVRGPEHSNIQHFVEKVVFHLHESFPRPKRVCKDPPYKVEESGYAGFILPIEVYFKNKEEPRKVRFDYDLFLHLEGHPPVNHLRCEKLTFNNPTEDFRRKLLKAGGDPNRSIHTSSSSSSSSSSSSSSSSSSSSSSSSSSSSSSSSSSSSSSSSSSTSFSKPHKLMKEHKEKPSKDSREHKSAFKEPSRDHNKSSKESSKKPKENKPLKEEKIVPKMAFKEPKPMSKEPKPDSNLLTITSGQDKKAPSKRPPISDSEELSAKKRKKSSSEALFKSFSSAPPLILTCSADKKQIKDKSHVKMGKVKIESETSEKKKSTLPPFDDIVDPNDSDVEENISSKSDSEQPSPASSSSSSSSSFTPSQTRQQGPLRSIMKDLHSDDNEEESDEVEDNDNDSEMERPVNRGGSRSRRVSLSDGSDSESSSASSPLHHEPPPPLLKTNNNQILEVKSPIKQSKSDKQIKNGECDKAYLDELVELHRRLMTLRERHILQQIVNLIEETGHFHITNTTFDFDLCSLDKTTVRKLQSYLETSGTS
ALR H2O2 inh: inhibitors of human sulfhydryl oxidase ALR. inhibition, % (no concentration beside the values). 290,000 compounds, 3.8% hits. purified ALR, DTT oxidation, H2O2 HRP-luminol luminescence;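 active = mean and each replicate at 75% or more; inconclusive = only one of the two met; inactive = neither met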;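 also: stock transfer was 7.5 nL into about 7.5 µL; 0% = neutral wells and 100% = wells with inactivated enzyme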
Target sequence (P55789 whole entry, looked up): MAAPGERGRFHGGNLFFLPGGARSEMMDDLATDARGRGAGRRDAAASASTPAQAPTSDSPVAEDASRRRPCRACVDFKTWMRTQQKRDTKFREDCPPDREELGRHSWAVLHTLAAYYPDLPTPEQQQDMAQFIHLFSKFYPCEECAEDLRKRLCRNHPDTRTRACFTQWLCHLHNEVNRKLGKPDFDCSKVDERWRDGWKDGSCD
Ecoli rRNA inh: selective bacterial rRNA inhibition in E. coli. GFP signal change (wild-type ribosome), % (concentration not given with the values). 350,000 compounds, 1.6% hits. E. coli WT GFP vs humanized-ribosome RFP mutants, fluorescence, 24 h; hits give low values; DMSO median 0, no signal -100. AID 720706;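 active = significant combined selectivity score with lowered wild-type GFP, culture density cut under 30%, mutant RFP and density less affected; inactive = any of these conditions unmet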; also: one replicate is shown; some compounds called inactive have numbers as strong as hits
T cruzi inh: blocks replication of Trypanosoma cruzi | T. cruzi beta-gal in NIH3T3, luminescence, 90 h | inhibition, % (test concentration not listed) | 300,000 compounds, 1.4% hits;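 active = mean inhibition across valid replicates above about 55%, limit read from the data; inconclusive = mean below that limit but half or more replicates reach it; inactive = mean below it, under half of replicates reach it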;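 also: signal also drops with host cell toxicity which is not excluded here; 0% = plate median of DMSO wells and 100% = zero luminescence signal; higher percent means less beta-gal luminescence so fewer parasites; stock transfer was 50 nL into about 50 µL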
FGF22 binding: binders of recombinant human FGF22 by thermal shift | Q9HCT0 | SYPRO orange fluorescence; percent of sucrose octasulfate shift, DMSO zero | calls only at 9.99 µM | 340,000 compounds, 1.5% hits | AID 651658;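 active = melting point raised past a set limit in the mean and every replicate; inconclusive = no clear call; three in four hits are not shown here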
Target sequence (Q9HCT0 whole entry, looked up): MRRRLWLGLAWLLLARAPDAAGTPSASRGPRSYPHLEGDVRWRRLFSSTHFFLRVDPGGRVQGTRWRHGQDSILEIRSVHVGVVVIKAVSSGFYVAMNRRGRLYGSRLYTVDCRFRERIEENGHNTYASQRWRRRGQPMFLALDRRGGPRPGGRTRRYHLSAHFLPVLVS
Ecoli rRNA inh OD600: recorded beside Ecoli rRNA inh, whose call it bears; OD600 change, %; measured here: OD600 growth;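 optical density of the mix in the first replicate; 0 = DMSO median and -100 = no signal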
Ecoli rRNA inh RFP: recorded beside Ecoli rRNA inh, whose call it bears; RFP signal change, %; measured here: RFP humanized mutant strains;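 first replicate; 0 = DMSO median and -100 = no signal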
Numbers without * were called inactive; i = inactive; ? = inconclusive; · = not tested or not shown; & = joins results of further samples. Not all compounds are listed; count on the stated rates, not on these rows.

SMILES | Beta cell apopt | RanGTP-Imp inh | Calb FLC | AF4-AF9 inh | ALR H2O2 inh | Ecoli rRNA inh | Ecoli rRNA inh OD600 | Ecoli rRNA inh RFP | T cruzi inh | FGF22 binding
CCn1c(COc2ccc(C)cc2)nnc1SCC(=O)Nc1ccc2c(c1)OCCO2 | 1 | 5.0 | · | · | -1 | · | · | · | 1 | ·
COc1cccc(/C=N/n2cnc3c(cnn3-c3ccccc3)c2=O)c1 | 0 | -0.9 | -3 | 0.0 | -3 | 12 | 3 | 0.6 | -37 | i
CCOC(=O)c1ccc(Nc2nc(N3CCOCC3)nc(N3CCOCC3)n2)cc1 | -5 | 4.1 | 25 | 0.8 | -23 | 1 | 5 | -1.8 | -16 | i
Cc1ccccc1-c1noc(-c2cccs2)n1 | 3 | 3.1 | 1 | -3.5 | -5 | -3 | -1 | 4.7 | -6 | i
COc1cc(C2C(S(=O)(=O)c3ccccc3)CON2C)ccc1OCc1ccc(F)cc1 (centres undefined) | · | 1.8 | -1 | -0.6 | -15 | -13 | -12 | -0.7 | 4 | i
O=C(NCc1cccnc1)Nc1cccc(C(F)(F)F)c1 | -7 | 2.9 | -19 | -0.9 | -12 | -21 | -15 | -1.9 | 27 | i
CCCc1cc(CN(C)C(=O)CC2C(=O)NCCN2Cc2ccccc2C)[nH]n1 (centres undefined) | -4 | -1.2 | 1 | -0.4 | -5 | 9 | -1 | 1.0 | -2 | i
CN(C)CCOc1ccc(C(C)(C)c2ccccc2)cc1 | -2 | -2.2 | -11 | 2.5 | 10 | 12 | -5 | -0.4 | 30 | i
O=C(CCc1ccc(S(=O)(=O)NC2CCCCC2)cc1)N(Cc1ccccc1)Cc1ccccc1 | 16 | 2.9 | -5 | · | -49 | · | · | · | 23 | ·
c1cncc(-c2nnc3sc(C4CCCCC4)nn23)c1 | 1 | 4.0 | -3 | · | -29 | · | · | · | -12 | ·
C/C(=N\NC(=O)c1cc(C)nc2ccccc12)c1cccs1 | 5 | 1.1 | -14 | -0.9 | -4 | -6 | -7 | -7.1 | -13 | i
CCOC(=O)c1cc2sccc2n1CC(=O)Nc1ccc(OC)cc1 | 2 | -1.4 | -3 | · | -5 | · | · | · | -14 | ·

Exported with two lines to a compound: entries from further up.
Second line of a record: Beta cell apopt, RanGTP-Imp inh, Calb FLC, AF4-AF9 inh, ALR H2O2 inh, Ecoli rRNA inh, Ecoli rRNA inh OD600, Ecoli rRNA inh RFP, T cruzi inh, FGF22 binding
O=C(CCc1ccc(S(=O)(=O)NC2CCCCC2)cc1)N(Cc1ccccc1)Cc1ccccc1
→ 16, 2.9, -5, ·, -49, ·, ·, ·, 23, ·
c1cncc(-c2nnc3sc(C4CCCCC4)nn23)c1
→ 1, 4.0, -3, ·, -29, ·, ·, ·, -12, ·

(further entries)
SMILES | Beta cell apopt | RanGTP-Imp inh | Calb FLC | AF4-AF9 inh | ALR H2O2 inh | Ecoli rRNA inh | Ecoli rRNA inh OD600 | Ecoli rRNA inh RFP | T cruzi inh | FGF22 binding
CCN(c1ccccc1)S(=O)(=O)c1ccc(OC)c(NC(=O)CN2C(=O)NC(C)(C)C2=O)c1 | -2 | · | · | 1.6 | -1 | 4 | 6 | -1.4 | · | i
COc1ccc2c(c1)C(=O)CC(c1ccc3c(c1)OCCO3)O2 (centres undefined) | 0 | 2.3 | -1 | -14 | -15 | -12 | -21 | 0.0 | -9 | i
CC(CCc1ccccc1)NC(=O)Cc1cccs1 (centres undefined) | 1 | -1.4 | 12 | -1.2 | -3 | -14 | -6 | -3.3 | -3 | i
COc1ccc(NC(=O)N2CCCC2C(=O)NCc2ccccc2Cl)cc1 (centres undefined) | -5 | 7.3 | -14 | 1.9 | 0 | 10 | -3 | -1.6 | -2 | i
Cc1ccc(-c2nc(SC(C)C(=O)N3CCOCC3)n[nH]2)cc1 (centres undefined) | -1 | -5.7 | -14 | -3.7 | 1 | -1 | -3 | -3.3 | 9 | i
COc1cccc(NC(=O)COC(=O)Cc2ccc(Br)cc2)c1 | -3 | -1.5 | -16 | -1.7 | -1 | -15* | -0.4* | 3.5* | -6 | i
CCOC(=O)N1CCN(C(=O)C2CCN(S(=O)(=O)CC)CC2)CC1 | -2 | -2.7 | -5 | · | -2 | 3 | 3 | 2.7 | 5 | ·
COc1cc(C(=O)N2CCN(C(=O)c3ccccc3)CC2)cc(OC)c1OC | -4 | 1.0 | ? | -0.2 | · | 13 | 6 | -1.3 | 12 | i
COc1ccc(OC)c(CCNC(=O)C(C)n2nc(C)c3c(C)n(-c4ccccc4)nc3c2=O)c1 (centres undefined) | 0 | 2.3 | -2 | -1.8 | -3 | -1 | 0 | -0.7 | 0 | i
Cc1ccnc(NC(=O)c2cccc(S(=O)(=O)N3CCN(c4ccccc4)CC3)c2)c1 | -27 | -1.5 | 3 | -12 | 3 | -1 | -11 | -0.1 | 23 | i
CCC(NC(=O)CNC(=O)CNC(=O)c1ccc(Cl)cc1Cl)c1ccc(C)cc1 (centres undefined) | -1 | 2.6 | 4 | 1.4 | -24 | 0 | 3 | 0.2 | 10 | i
CCCCn1c(SCC(=O)N2CC(C)CC(C)C2)nc2cc(S(N)(=O)=O)ccc21 (centres undefined) | -5 | -0.8 | -7 | · | -4 | · | · | · | -2 | ·
COc1ccc(CNCCC(c2ccc(F)cc2)c2ccc(OC)cc2)cc1 (centres undefined) | 6 | -1.1 | -3 | · | -27 | · | · | · | 51 | ·
C/C(N)=C(/C#N)C(=O)CSc1nc2ccccc2[nH]1 | 5 | ? | -6 | · | 2 | · | · | · | -3 | ·
CCOc1ccccc1N(CC(=O)Nc1ccc2c(c1)OCCO2)S(C)(=O)=O | -4 | 2.4 | -2 | · | -3 | · | · | · | -1 | ·
CCOc1ccc(OCCSc2nc(C)cc(=O)[nH]2)cc1 | 1 | 2.7 | 6 | · | 0 | · | · | · | -19 | ·
Cc1[nH]c2ccccc2c1/C=C(\C#N)C(=O)NCC1CCCO1 (centres undefined) | -6 | · | 22 | 3.3 | 2 | -23* | -17* | -1.8* | -4 | i
Cc1cc(Br)c2[nH]c3c(c2c1)CCCC3=O | 5 | -3.3 | 3 | · | 0 | · | · | · | 11 | ·
CCOC(=O)C1(Cc2cccc(OC)c2)CCCN(C(=O)CCN2CCCO2)C1 (centres undefined) | -3 | -0.2 | -2 | 3.6 | -15 | 5 | 17 | 0.1 | 2 | i
CSc1nc(Sc2ccccc2)c2ccccc2n1 | -5 | 3.4 | 6 | · | 25 | · | · | · | -7 | ·
O=S(=O)(Nc1cccc(CCc2ccccn2)c1)c1cc(Cl)ccc1Cl | 4 | -3.6 | -4 | -10 | -6 | -39 | -35 | -3.7 | · | i
CC(OC(=O)Cc1ccsc1)C(=O)Nc1ccc(Cl)cn1 (centres undefined) | 2 | -0.9 | 6 | 1.7 | · | 4 | 2 | -2.1 | -6 | i
CCOc1ccc2c(C)cc(=O)oc2c1OCC | -8 | -4.2 | -13 | · | 3 | · | · | · | -1 | ·
NC(=O)c1ccc(N2CCC(C(N)=O)CC2)c([N+](=O)[O-])c1 | -5 | 2.4 | 0 | 0.1 | -3 | 13 | 4 | 3.0 | 4 | i
CC(C)NC(=O)Nc1ccc2c(c1)C(=O)N([C@H](C)CO)C[C@@H](C)[C@@H](CN(C)C(=O)NC1CCCCC1)O2 | -9 | · | · | -2.0&-2.4 | -7 | 3&5 | 6&9 | 0.0&-8.4 | · | i
COc1cc(C(=O)Nc2cc(-c3nc4cc(C)ccc4o3)ccc2C)cc(OC)c1OC | 26 | -2.4 | -4 | · | -8 | · | · | · | 19 | ·
CCOC(=O)c1c(N)sc(-c2ccccc2)c1C | -7 | 1.2 | -15 | · | 99* | · | · | · | 25 | ·
COCCn1nnnc1C(c1ccccn1)N1CCN(c2cccc(C)c2C)CC1 (centres undefined) | -2 | 5.6 | 4 | · | -2 | · | · | · | -10 | ·
CCn1nc(C)c(CN2CCC(n3nccc3NC(=O)Cc3ccccc3)CC2)c1C | -9 | -2.2 | 0 | 1.2 | -3 | 13 | 12 | 1.6 | -3 | i
C[C@]12c3[nH]c4ccccc4c3CCN1C(=O)C(CC(=O)NCCCn1ccnc1)C[C@@H]2C(=O)N1CCCCC1 (some centres undefined) | 3 | · | · | 0.7 | -2 | 20 | 2 | 1.7 | · | i
CCCCCCCNC(=O)C1(CC2CC(c3ccccc3)=NO2)CCN(C(=O)OC(C)(C)C)CC1 (centres undefined) | 2 | · | · | 2.0 | 1 | 10 | 14 | -0.1 | · | i
COC(=O)c1cc2c(cc1N)OCCO2 | · | 1.7 | -15 | 2.7 | -10 | 23 | 9 | -1.1 | -1 | i
COc1cccc(C(=O)C2CCCN(C(=O)c3ccccn3)C2)c1 (centres undefined) | -10 | 0.6 | -5 | 0.3 | -4 | 2 | 7 | 1.2 | -15 | i
CC(=O)c1cccc(NC(=O)Cn2cnc(S(=O)(=O)N3CCCC3)c2)c1 | -5 | 3.6 | -3 | -0.8 | -4 | 8 | 8 | -3.5 | -10 | i
CCOC(=O)COc1ccsc1C(=O)OC | 2 | ? | 3 | · | -10 | · | · | · | -14 | ·
O=C(O)CC(C(=O)OC1CCCCC1)N1CCOCC1 (centres undefined) | 1 | 0.6 | 14 | · | 1 | · | · | · | -7 | ·

An excerpt of these results, with each value named.
SMILES: COCCn1nnnc1C(c1ccccn1)N1CCN(c2cccc(C)c2C)CC1 (centres undefined)
- Beta cell apopt: -2
- RanGTP-Imp inh: 5.6
- Calb FLC: 4
- AF4-AF9 inh: ·
- ALR H2O2 inh: -2
- Ecoli rRNA inh: ·
- Ecoli rRNA inh OD600: ·
- Ecoli rRNA inh RFP: ·
- T cruzi inh: -10
- FGF22 binding: ·
SMILES: CCn1nc(C)c(CN2CCC(n3nccc3NC(=O)Cc3ccccc3)CC2)c1C
- Beta cell apopt: -9
- RanGTP-Imp inh: -2.2
- Calb FLC: 0
- AF4-AF9 inh: 1.2
- ALR H2O2 inh: -3
- Ecoli rRNA inh: 13
- Ecoli rRNA inh OD600: 12
- Ecoli rRNA inh RFP: 1.6
- T cruzi inh: -3
- FGF22 binding: i
SMILES: COC(=O)c1cc2c(cc1N)OCCO2
- Beta cell apopt: ·
- RanGTP-Imp inh: 1.7
- Calb FLC: -15
- AF4-AF9 inh: 2.7
- ALR H2O2 inh: -10
- Ecoli rRNA inh: 23
- Ecoli rRNA inh OD600: 9
- Ecoli rRNA inh RFP: -1.1
- T cruzi inh: -1
- FGF22 binding: i
